Screens as filed in PubChem BioAssay.
Vaccinia stage – Vaccinia orthopox stage-specific inhibition; Vaccinia-infected cells, mCherry/Venus stage reporter fluorescence; stronger effect = lower value; some inactives read as strong as hits; activity change (mCherry), % (concentration not given with the values); actives 0.01% (n = 89,000);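 active means mCherry past -33% and 40 or more points under the early reporter, replicates agreeing; inconclusive means past -33% without that gap or agreement; tested in A549 cells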;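 further: scaled between vehicle wells and reference inhibitor wells; 23 nL library stock went into each well; one replicate is shown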
Vaccinia stage Venus – further read-out of Vaccinia stage, marked with its call; activity change (Venus), %; measured here: Venus reporter, other viral stage;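 negative = less Venus signal; first of two replicates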
* marks the source's active call; other numbers are inactive results; ? = inconclusive; nt = no result given. A portion of the library; rates above refer to the full screens.

SMILES	Vaccinia stage	Vaccinia stage Venus
Cc1ccc(S(=O)(=O)Nc2ccc3c(c2)CC(=O)N([C@@H](C)CO)C[C@H](C)[C@@H](CN(C)C)O3)cc1	4	6
COc1ccccc1-c1cnc2c(c1)C(=O)N([C@@H](C)CO)C[C@H](C)[C@H](CN(C)C(=O)CN(C)C)O2	10	2
COc1cccc(NC(=O)C[C@@H]2CC[C@@H]3[C@H](COc4ccc(NC(=O)C5CCCC5)cc4C(=O)N3C)O2)c1	15	-1
C[C@@H]1CCCCO[C@@H](CN(C)S(=O)(=O)c2cccs2)[C@@H](C)CN([C@H](C)CO)C(=O)c2cc(NC(=O)Nc3ccccc3)ccc2O1	36	25
CN1C[C@@H]2[C@H](c3ccccc31)[C@H](CO)N2C(=O)C1CCOCC1	14	2
CN(C)C(=O)[C@@H]1[C@@H](CO)[C@@H]2Cn3c(ccc(-c4ccncc4)c3=O)[C@@H]2N1Cc1ccccc1F	21	19
N#Cc1ccc(-c2ccc([C@@H]3[C@H](CO)N4C(=O)CN(C(=O)C5CCC5)C[C@@H]34)cc2)cc1	-14	2
COc1ccc2c3c([nH]c2c1)[C@H](CO)N(C(=O)c1ccccc1)CC31CN(C(=O)CC2CC2)C1	25	2
O=C(C[C@@H]1CC[C@H]2[C@@H](COC[C@H](O)CN2CC2CCOCC2)O1)N1CCOCC1	4	-2
O=C(N[C@H]1CC[C@@H](CC(=O)N2CCN(c3ccccc3)CC2)O[C@H]1CO)c1ccccc1	-3	12
C[C@@H]1CN([C@@H](C)CO)C(=O)c2cc(C#CC3(O)CCCC3)cnc2O[C@@H]1CN(C)C(=O)C1CCOCC1	8	4
CN1C(=O)c2cc(NC(=O)c3cscn3)ccc2OC[C@H]2O[C@@H](CC(=O)N3CCCCC3)CC[C@H]21	8	3
C[C@H](CO)N1C[C@H](C)[C@H](CN(C)CC2CC2)OCCCC[C@H](C)Oc2ccc(NC(=O)C3CCCCC3)cc2C1=O	-7	-6
CCCNC(=O)N1C[C@@H](C)[C@@H](OC)CN(C)C(=O)c2cc(NS(=O)(=O)CC)ccc2OC[C@@H]1C	4	0
CN(C)C(=O)c1ccc(-c2ccccc2[C@@H]2[C@@H](C#N)N(C(=O)C3CC3)[C@@H]2CO)cc1	12	2
C[C@@H]1CN([C@@H](C)CO)C(=O)c2cccc(NC(=O)Nc3ccccc3)c2O[C@@H]1CN(C)Cc1ccc2c(c1)OCO2	-3	-4
CCOC(=O)N(C)C[C@@H]1OCc2ccccc2-c2c(n(C)c3ccccc23)C(=O)N([C@@H](C)CO)C[C@H]1C	5	5
C[C@@H]1CN([C@@H](C)CO)C(=O)c2cccc(NC(=O)c3cnccn3)c2O[C@@H]1CN(C)C(=O)Nc1ccc2c(c1)OCO2	7	2
CO[C@@H]1CN(C)C(=O)c2cc(NS(C)(=O)=O)ccc2OC[C@@H](C)N(C(=O)CN(C)C)C[C@@H]1C	0	-1
C[C@H](CO)N1C[C@H](C)[C@@H](CN(C)Cc2ccccn2)Oc2cc(-c3ccccc3)ccc2S1(=O)=O	?	nt
O=C(C[C@@H]1C[C@@H]2c3cc(NC(=O)c4ccc5c(c4)OCO5)ccc3O[C@@H]2[C@@H](CO)O1)NCC1CC1	9	6
COc1ccc(C#Cc2ccc([C@H]3[C@H](CO)N4C(=O)CN(C(=O)c5ccccc5)C[C@@H]34)cc2)cc1	-17	-3
CO[C@@H]1CN(C)C(=O)c2cc(NC(=O)c3ccc4c(c3)OCO4)ccc2OC[C@H](C)NC[C@H]1C	1	3
COc1cccc(S(=O)(=O)N2C[C@@H](O)COC[C@@H]3O[C@H](CC(=O)NCCCN4CCOCC4)CC[C@H]32)c1	10	4
Cc1noc(C)c1NC(=O)Nc1ccc2c(c1)C(=O)N([C@H](C)CO)C[C@H](C)[C@@H](CN(C)CC1CC1)OCCCC[C@H](C)O2	25	-2

Some of these compounds in order of molar mass, ascending.
SMILES	Vaccinia stage	Vaccinia stage Venus
CN(C)C(=O)c1ccc(-c2ccccc2[C@@H]2[C@@H](C#N)N(C(=O)C3CC3)[C@@H]2CO)cc1	12	2
CO[C@@H]1CN(C)C(=O)c2cc(NC(=O)c3ccc4c(c3)OCO4)ccc2OC[C@H](C)NC[C@H]1C	1	3
O=C(C[C@@H]1C[C@@H]2c3cc(NC(=O)c4ccc5c(c4)OCO5)ccc3O[C@@H]2[C@@H](CO)O1)NCC1CC1	9	6
Cc1ccc(S(=O)(=O)Nc2ccc3c(c2)CC(=O)N([C@@H](C)CO)C[C@H](C)[C@@H](CN(C)C)O3)cc1	4	6
CCCNC(=O)N1C[C@@H](C)[C@@H](OC)CN(C)C(=O)c2cc(NS(=O)(=O)CC)ccc2OC[C@@H]1C	4	0
C[C@@H]1CN([C@@H](C)CO)C(=O)c2cccc(NC(=O)c3cnccn3)c2O[C@@H]1CN(C)C(=O)Nc1ccc2c(c1)OCO2	7	2
Cc1noc(C)c1NC(=O)Nc1ccc2c(c1)C(=O)N([C@H](C)CO)C[C@H](C)[C@@H](CN(C)CC1CC1)OCCCC[C@H](C)O2	25	-2

Back to the main list with the 2 entries that preceded the break.
SMILES	Vaccinia stage	Vaccinia stage Venus
COc1cccc(S(=O)(=O)N2C[C@@H](O)COC[C@@H]3O[C@H](CC(=O)NCCCN4CCOCC4)CC[C@H]32)c1	10	4
Cc1noc(C)c1NC(=O)Nc1ccc2c(c1)C(=O)N([C@H](C)CO)C[C@H](C)[C@@H](CN(C)CC1CC1)OCCCC[C@H](C)O2	25	-2
Cc1ccc(S(=O)(=O)Nc2ccc3c(c2)CC(=O)N([C@H](C)CO)C[C@@H](C)[C@@H](CN(C)C(=O)NC2CCCCC2)O3)cc1	-18	-4
Cc1ccc(NC(=O)Nc2ccc3c(c2)C(=O)N(C)[C@@H]2CC[C@@H](CC(=O)NCC(F)(F)F)O[C@@H]2CO3)cc1	-8	0
O=C(Nc1ccccc1F)N[C@@H]1CC[C@@H](CCNC(=O)C2CCC2)O[C@H]1CO	-2	1
COc1ccccc1CNC(=O)C[C@@H]1C[C@H]2c3cc(NS(=O)(=O)c4ccc(F)cc4)ccc3O[C@H]2[C@H](CO)O1	?	nt
C[C@@H]1CCCCO[C@@H](CN(C)C(=O)Cc2ccccc2)[C@H](C)CN([C@@H](C)CO)C(=O)c2cc(NC(=O)Nc3ccc(F)cc3)ccc2O1	-33	-13
Cc1ccc(S(=O)(=O)N(C)C[C@H]2OCCCC[C@@H](C)Oc3ccc(NC(=O)c4ccccc4)cc3C(=O)N([C@@H](C)CO)C[C@@H]2C)cc1	-15	0
C[C@H](CO)N1C[C@H](C)[C@@H](CN(C)S(=O)(=O)c2ccccc2)Oc2ccc(NS(=O)(=O)c3ccc(F)cc3)cc2C1=O	16	20
CC(C)NC(=O)N(C)C[C@@H]1Oc2ncc(C#Cc3ccncc3)cc2C(=O)N([C@@H](C)CO)C[C@H]1C	16	6
COCC#Cc1ccc2c(c1)O[C@H](CN(C)C)[C@H](C)CN([C@H](C)CO)S2(=O)=O	10	10
C[C@H]1CN([C@@H](C)CO)C(=O)Cc2cc(NC(=O)C3CCCCC3)ccc2O[C@@H]1CN(C)Cc1ccc(-c2ccccc2)cc1	-15	-7
C[C@@H]1CCCCO[C@@H](CN(C)C(=O)CCC(F)(F)F)[C@H](C)CN([C@H](C)CO)C(=O)c2cc(NS(=O)(=O)c3ccc(F)cc3)ccc2O1	-29	-22
Cc1ccccc1S(=O)(=O)NCC[C@@H]1CC[C@H](NC(=O)C2CCOCC2)[C@@H](CO)O1	4	9
Cc1ccc(S(=O)(=O)Nc2ccc3c(c2)CC(=O)N([C@@H](C)CO)C[C@@H](C)[C@H](CN(C)Cc2ccc4c(c2)OCO4)O3)cc1	?	nt
O=C(c1ccccn1)N1C[C@@H]2[C@H](c3ccccc31)[C@H](CO)N2C(=O)C1CCOCC1	5	0
CCNC(=O)C[C@H]1CC[C@H]2[C@H](COc3ccc(NC(=O)c4ccccc4)cc3C(=O)N2C)O1	5	0
O=C(C[C@H]1CC[C@@H](NC(=O)c2cccc(F)c2)[C@H](CO)O1)Nc1nccs1	-3	-1
CCS(=O)(=O)N1CC(=O)N2[C@H](CO)[C@@H](c3ccc(-c4cccc(F)c4)cc3)[C@@H]2C1	-10	1
C/C=C/c1ccc2c(c1)O[C@H](CN(C)Cc1ccc(C(=O)O)cc1)[C@@H](C)CN([C@@H](C)CO)S2(=O)=O	-1	-1
C/C=C/c1ccc2c(c1)O[C@H](CN(C)C(=O)Nc1ccccc1)[C@H](C)CN([C@H](C)CO)S2(=O)=O	-15	-9
O=C([C@H]1[C@H](CO)[C@H]2Cn3c(cccc3=O)[C@@H]1N2)N1CCc2ccccc2C1	-8	7
CC(=O)N(C)C[C@H]1Oc2cc(-c3ccccc3)ccc2S(=O)(=O)N([C@H](C)CO)C[C@H]1C	16	1
CO[C@H]1CN(C)C(=O)c2cc(NC(=O)CC(F)(F)F)ccc2OC[C@H](C)N(C(C)=O)C[C@H]1C	3	6
COc1ccc(S(=O)(=O)Nc2ccc3c(c2)C(=O)N([C@@H](C)CO)C[C@H](C)[C@H](CN(C)C(=O)Nc2ccc(C(F)(F)F)cc2)OCCCC[C@H](C)O3)cc1	-19	-13
COCC1=C2[C@@H](c3ccccc3)OB(O)C[C@@H]2n2c(=O)n(-c3ccccc3)c(=O)n2C1	10	8
O=C(C[C@H]1CC[C@@H](NC(=O)CC2CC2)[C@@H](CO)O1)NCc1ccc(-c2ccccc2)cc1	-4	0

Copied from the listing (2 entries):
SMILES	Vaccinia stage	Vaccinia stage Venus
Cc1ccc(S(=O)(=O)Nc2ccc3c(c2)CC(=O)N([C@H](C)CO)C[C@@H](C)[C@@H](CN(C)C(=O)NC2CCCCC2)O3)cc1	-18	-4
Cc1ccc(NC(=O)Nc2ccc3c(c2)C(=O)N(C)[C@@H]2CC[C@@H](CC(=O)NCC(F)(F)F)O[C@@H]2CO3)cc1	-8	0

(continued)
SMILES	Vaccinia stage	Vaccinia stage Venus
O=C(Cc1cccnc1)N[C@@H]1CC[C@H](CCn2cc(Cc3ccccc3)nn2)O[C@H]1CO	9	17
CCS(=O)(=O)N1CC(=O)N2[C@H](CO)[C@@H](c3ccc(-c4ccccc4F)cc3)[C@@H]2C1	-32	-50
C[C@@H]1CN([C@@H](C)CO)C(=O)c2cccc(NC(=O)NC3CCCCC3)c2O[C@@H]1CN(C)Cc1ccc(Oc2ccccc2)cc1	?	nt
CN(C)C(=O)c1ccc(-c2ccc3c(c2)[C@H]2[C@H](CCN2C(=O)c2ccccc2)[C@H](CO)N3)cc1	-9	-2
C[C@H](CO)N1C[C@H](C)[C@H](CN(C)Cc2ccc(C(=O)Nc3ccccc3N)cc2)Oc2ccc(NC(=O)Nc3cccc4ccccc34)cc2CC1=O	27	16
C[C@H]1CCCCO[C@@H](CN(C)C(=O)C2CCCCC2)[C@@H](C)CN([C@@H](C)CO)C(=O)c2cc(NC(=O)CCC(F)(F)F)ccc2O1	-33	-26
COc1cccc(-c2cnc3c(c2)C(=O)N([C@H](C)CO)C[C@@H](C)[C@H](CN(C)Cc2ccncc2)O3)c1	1	-5
C[C@H](O)C#Cc1cnc2c(c1)C(=O)N([C@@H](C)CO)C[C@@H](C)[C@H](CN(C)C(=O)Nc1ccc(F)cc1)O2	21	20
O=C(c1ccccc1)N1CC[C@@H]2[C@H]1c1cc(C#Cc3ccccc3F)ccc1N[C@@H]2CO	8	3
COc1ccc(CN(C)C[C@@H]2Oc3ccc(NS(C)(=O)=O)cc3C(=O)N([C@H](C)CO)C[C@H]2C)cc1	27	9
C[C@@H]1CCCCO[C@H](CN(C)Cc2ccc(C(F)(F)F)cc2)[C@H](C)CN([C@H](C)CO)C(=O)c2cc(NC(=O)c3ccncc3)ccc2O1	?	nt
O=C(C[C@@H]1C=C[C@@H](NC(=O)Nc2ccc(C(F)(F)F)cc2)[C@@H](CO)O1)NCCN1CCCC1	-18	-23
C[C@H]1CN([C@@H](C)CO)C(=O)c2cc(NC(=O)C3CCCCC3)ccc2O[C@@H]1CN(C)C(=O)Nc1ccccc1	3	3
CCN1[C@@H]2c3ccc(-c4ccncc4)c(=O)n3C[C@H]1[C@H](CO)[C@H]2C(=O)NCc1ccccc1	4	1
CO[C@@H]1CN(C)C(=O)c2cc(NC(=O)Nc3ccccc3F)ccc2OC[C@H](C)N(CCC(F)(F)F)C[C@H]1C	-23	-11
CNC[C@H]1Oc2c(NS(=O)(=O)c3cn(C)cn3)cccc2C(=O)N([C@H](C)CO)C[C@H]1C	9	6
COCC#Cc1cnc2c(c1)C(=O)N([C@H](C)CO)C[C@@H](C)[C@H](CN(C)S(=O)(=O)c1cn(C)cn1)O2	18	8
COc1cccc(C(=O)N2C[C@H]3[C@@H](c4ccccc42)[C@@H](CO)N3C(C)=O)c1	18	12
C[C@@H]1CN([C@@H](C)CO)C(=O)c2cc(NS(=O)(=O)c3ccc(Cl)cc3)ccc2O[C@@H](C)CCCCO[C@H]1CN(C)C(=O)c1ccccc1	-18	-23
CN(C)C(=O)C[C@H]1C=C[C@H](NC(=O)C2CCOCC2)[C@@H](CO)O1	8	4
C[C@H](CO)N1C[C@H](C)[C@@H](CN(C)Cc2ccc3c(c2)OCO3)OCCCC[C@H](C)Oc2ccc(NC(=O)Nc3ccc(F)cc3)cc2C1=O	?	nt
CCCNC(=O)N1C[C@H]2[C@@H](c3ccccc31)[C@@H](CO)N2Cc1cc(F)ccc1F	1	6
N#Cc1cccc(-c2ccc([C@@H]3[C@@H](CO)N4CCCCN(C(=O)Nc5ccc(F)cc5)C[C@@H]34)cc2)c1	?	nt
Cc1ccccc1-c1cnc2c(c1)C(=O)N([C@H](C)CO)C[C@H](C)[C@H](CN(C)Cc1cncnc1)O2	-3	-1
CN1CCN(C(=O)C[C@@H]2C[C@@H]3c4cc(NC(=O)c5ccc6c(c5)OCO6)ccc4O[C@@H]3[C@H](CO)O2)CC1	-12	0
